High-throughput results (PubChem)
Biofilm kill mix = mixtures killing C. albicans biofilm. C. albicans biofilm persisters + clotrimazole, fluorescence viability; primary screen in compound mixtures of four per well. inhibition, % at 7.6 µM. actives 0.02% (n = 120,000);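 active = inhibition above 30.3% in the primary screen of four-compound pools, then above 30% when the compound was retested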;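 also: compounds exposed to preformed 24 h biofilms for 48 h; the number belongs to the whole pool; some results filed as inactive read as strong as hits; inactives centre near 12; 0% = biofilm with clotrimazole alone and 100% = kill control; retested singly at about 60 µM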
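System: C. albicans CAF4-2 wild-type biofilms; Medium: RPMI/MOPS medium, pH 7.0; Reagent: Clotrimazole, 50 µg/mL; Times: biofilm formation 24 h, compound exposure 48 h, 37 °C; Detection: 2-h Alamar Blue fluorescence, 535/590 nm excitation/emission; Evaluation: percent inhibition of biofilm viability.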
The depositor's hits bear a star. Not all compounds are listed (hit frequency here may not be typical).

SMILES	Biofilm kill mix
O=C(N=Nc1c(O)[nH]c2ccccc12)c1cccc(S(=O)(=O)N2CCCCC2)c1	9.5
Cc1ccccc1OCCSCc1nc2ccccc2[nH]1	4.4
O=C(Nc1cccc(F)c1)NC1(C(=O)N2CCN3CCCC3C2)CCCCC1 (stereo unspecified)	6.5
COc1ccc2c(c1)C(C)=CC(C)(C)N2C(=O)Nc1ccccc1	17.2
COCc1cc(C)nc(OCC(=O)N/N=C/c2ccco2)c1C#N	8.3
C/C(=N\NC(=O)c1ccc2c(c1)OCO2)c1ccc(O)cc1	13.9
CCC(C)c1ccccc1NC(=O)COC(=O)c1ccc(N2CCCC2)c([N+](=O)[O-])c1 (stereo unspecified)	19.8
CCCCC(=O)Nc1nc2ccc(C(=O)OC)cc2s1	16.3
Cc1nn2cc(-c3ccc(Cl)cc3)cnc2c1Cl	24.7
C=CCn1c(C)cc(C(=O)Cn2nc(C(=O)O)c3ccccc3c2=O)c1C	9.2
CCc1c(C)sc2nc3c(C(=O)N4CCOCC4)cc(C(=O)c4ccccc4O)cn3c(=O)c12	8.7
CCN1C(=O)/C(=C2\SC(=S)N(NC(=O)c3ccccc3O)C2=O)c2ccccc21	20.3
CC(=O)Oc1ccc(-c2cccc(C(=O)NCCCO)c2)cc1	7.2
COC(=O)CCc1sc(Nc2ccc(Br)cc2)nc1-c1ccc(OC)cc1	10.8
CCOC(Cn1c(SCc2cc(C(C)=O)ccc2OC)nc2ccccc2c1=O)OCC	20.4
Cc1cc(NC(=O)Nc2cccc3ccccc23)no1	17.7
O=C(Cn1cc(SCc2ccc(Cl)cc2)c2ccccc21)N1CCOCC1	7.8
O=C(NCCNc1ccc([N+](=O)[O-])cc1)c1cccc2c(Br)cccc12	7.4
COc1ccccc1C(=O)O/N=C(/c1ccncc1)c1ccc([N+](=O)[O-])cc1	10.7
O=C1CCCC(O)=C1C=Nc1cccc(C(F)(F)F)c1	21.0
COc1ccc(-c2nc3ccccn3c2C=O)cc1	6.2
Cc1ccccc1-n1c(SCC(=O)N/N=C/C=C/c2ccccc2[N+](=O)[O-])nc2ccccc2c1=O	3.7
CCn1ncc(/C=C/C(=O)C2CC2)c1C	18.4
COC(=O)[C@@H](N)Cc1ccc(O)cc1	11.3
NC(=O)c1cccn1-c1ncc(C(F)(F)F)cc1Cl	31.3
Cc1ccc2c(c1)C(c1ccc(O)cc1)(c1ccc(O)cc1)C(=O)N2C	19.7
C=CC[C@@H]1Cc2c(Br)ccc(Br)c2[C@@H](CC=C)N1	2.5
O=C(NCc1cccnc1)c1cc(C(=O)C2CC2)c[nH]1	20.7
CCCCN(C(=O)Cn1ncc(Cl)c(Cl)c1=O)c1c(N)n(CC(C)C)c(=O)[nH]c1=O	8.3
CCn1nc(C)c(Br)c1-c1nc(-c2cccc(C)c2)no1	17.2

Molecules shown so far that contain bromine, in the order listed:
SMILES	Biofilm kill mix
COC(=O)CCc1sc(Nc2ccc(Br)cc2)nc1-c1ccc(OC)cc1	10.8
O=C(NCCNc1ccc([N+](=O)[O-])cc1)c1cccc2c(Br)cccc12	7.4
C=CC[C@@H]1Cc2c(Br)ccc(Br)c2[C@@H](CC=C)N1	2.5
CCn1nc(C)c(Br)c1-c1nc(-c2cccc(C)c2)no1	17.2

Later entries.
SMILES	Biofilm kill mix
Cc1cccc2sc(NS(C)(=O)=O)nc12	-0.1
Cc1ccc(/C=N/NC(=O)CNC(=O)Cc2ccccc2)o1	6.9
COc1cc(C(=O)N/N=C(\C)Cn2nc([N+](=O)[O-])cc2C)ccc1O	7.6
CC(C)N1CCc2c(sc(NC(=O)c3nc4ccccc4s3)c2C(N)=O)C1	19.8
O=C(Nc1cc(S(=O)(=O)N2CCOCC2)ccc1N1CCOCC1)c1ccc(Cl)nc1	17.6
O=C(NCC(c1cccs1)N1CCOCC1)c1cc(-c2ccc(F)cc2)nc2ccccc12 (stereo unspecified)	-3.6
Cc1[nH]n(-c2ccc(C(=O)O)cc2)c(=O)c1CCO	9.3
NC(=O)N/N=C/c1coc2ccc(O)cc2c1=O	4.9
COC(=O)c1cccc(NC(=O)c2onc3c2CCCC3)c1	15.9
COC(=O)c1ccc(NC(C(=O)OC)C(C)C)c([N+](=O)[O-])c1 (stereo unspecified)	7.6
C=CCSc1nnc(-c2ccc([N+](=O)[O-])cc2)o1	15.8
N#Cc1cc(S(=O)(=O)c2ccc(Cl)cc2)c(N)[nH]c1=O	4.9
C/C(=N\NC(=O)c1ccc(CSc2nncn2C)cc1)c1cccs1	0.2
COc1ccc(CCNC(=O)c2ccccc2SC)cc1	12.2
Cc1nc2c(C#N)cnn2c2c1CCNN2C	-18.2
CCCn1c(-c2cccs2)nc2c1c(=O)[nH]c(=O)n2Cc1ccccc1	7.2
C=CCOc1cc(OC)c(OC)c(OC)c1	13.9
COc1ccc(Cc2noc(CN3CCN(c4ccc(Cl)cn4)CC3)n2)cc1OC	16.7
CCOc1cccc(/C=N/Nc2ccc(S(=O)(=O)N(CC)CC)cn2)c1O	8.4
Cc1c(Cl)cccc1NC(=O)CC1Sc2ccccc2NC1=O (stereo unspecified)	10.8
Cc1nn(-c2ccccc2)c(-c2ccccc2[N+](=O)[O-])c1C(=O)O	17.1
Cc1nn(-c2cc(C)c3ccccc3n2)c2c1C1C(C2)C1(C)C (stereo unspecified)	16.9
COc1ccc(OC)c(Nc2ccc(Nc3cc(OC)ccc3OC)nn2)c1	9.0
Cc1ccc(NC(=S)NCC2CCN(C(C)c3ccccc3)C2)cc1 (stereo unspecified)	9.5
Cc1ccc(NC(=O)COC(=O)c2sccc2C)cc1S(=O)(=O)N1CCOCC1	19.8
CCOc1ccc(N/C=C\C(=O)c2ccc3c(c2)OCO3)cc1	15.5
COc1ccc(NC(=O)c2cccnc2Sc2ccccc2)c(OC)c1	16.2
CCN(C(=O)COC(=O)c1cc(-c2ccccc2)nc2ccc(Br)cc12)C1CCS(=O)(=O)C1 (stereo unspecified)	7.3
O=C(CSc1nnc(NCc2ccccc2)s1)N1CCOCC1	6.1
COc1ccc(-c2cc(C(F)(F)F)nc(-n3ccnc3)n2)cc1	17.6
COc1ccc(Cn2c3ccc(OC)cc3c3nc4ccccc4nc32)cc1	1.2
O=C(NCc1ccccc1)c1cccc(F)c1F	-0.4
Cc1ccccc1-c1nn(-c2ccc(F)cc2F)cc1CNCC(C)O (stereo unspecified)	-0.3
COC1(C)CC2C(CC1OC(=O)c1cc([N+](=O)[O-])cc([N+](=O)[O-])c1)C2(C)C (stereo unspecified)	7.8
COc1cc([N+](=O)[O-])ccc1N=Nc1c(N)[nH]n(-c2ccccc2)c1=O	8.1
CCCS(=O)(=O)N1CCC(C(=O)NCCC(C)C)CC1	12.3
CCC/C(O)=C1\C(=O)CC(c2ccccc2)CC1=NC(C)C(=O)O (stereo unspecified)	9.7
N#C/C(=C(O)\C=C\c1ccccc1)c1nc2ccccc2[nH]1	26.7
COc1cc(/C=C2/NC(=O)N(CC(=O)Nc3ccc(C)cc3)C2=O)ccc1Oc1ccc([N+](=O)[O-])cn1	-30.1
CCCCC(=O)Nc1cc(OCC)c(NC(=S)NC)cc1OCC	-0.9
Cc1cc2nc(=O)c(/C=C3\C=Nc4ccccc43)c(N)n2o1	-2.1
CCC(C)/C(C)=N/NC(=O)C1COc2ccccc2O1 (stereo unspecified)	19.0
COc1cccc(-c2nc(=S)c3c(o2)CCCC3)c1	9.5
COc1cc(C(C)=O)ccc1OC(=O)c1cc2cccc(OC)c2oc1=O	7.3
COc1ccccc1NC1=C(Cl)C(=O)N(c2ccccc2)C1=O	11.6

4 entries from above, reformatted.
COc1cc(/C=C2/NC(=O)N(CC(=O)Nc3ccc(C)cc3)C2=O)ccc1Oc1ccc([N+](=O)[O-])cn1
- Biofilm kill mix = -30.1
CCCCC(=O)Nc1cc(OCC)c(NC(=S)NC)cc1OCC
- Biofilm kill mix = -0.9
COc1cc([N+](=O)[O-])ccc1N=Nc1c(N)[nH]n(-c2ccccc2)c1=O
- Biofilm kill mix = 8.1
CCCS(=O)(=O)N1CCC(C(=O)NCCC(C)C)CC1
- Biofilm kill mix = 12.3

Following part
SMILES	Biofilm kill mix
COc1ccc(/C=N/Nc2cc(N(C)C)nc(N(C)C)n2)cc1	8.8
O=c1ccnc2n1COCS2	25.7
CN(C)/C=C/c1onc(-c2c(F)cccc2Cl)c1C#N	3.1
CCOC(=O)c1c(C)c(C(=O)OCC)n(C)c1C	17.3
CSc1ccc(/C=N/Nc2cccc(C(=O)O)c2)cc1	21.6
CC(NCc1ccc(S(N)(=O)=O)cc1)C(=O)Nc1ccc([N+](=O)[O-])cc1Cl (stereo unspecified)	3.5
CCN(CC)S(=O)(=O)c1ccc(N2CCOCC2)c(NC(=O)C2COc3ccccc3O2)c1 (stereo unspecified)	17.8
N#CC(CO)(Cc1ccc(OC(F)F)cc1)c1nc2ccccc2[nH]1 (stereo unspecified)	5.8
O=C(CCCN1CC=C(n2c(=O)[nH]c3ccccc32)CC1)c1ccc(F)cc1	-4.4
CNC(=O)/C(=C/c1ccc2c(c1)OCO2)NC(=O)c1ccc(Br)cc1	6.7
CCc1cccc(NC(=O)Cc2ccc([N+](=O)[O-])cc2)c1	8.1
CCn1c(SCC(=O)N/N=C/C=C/c2ccco2)nnc1-c1ccc(OC)cc1	21.5
COc1ccccc1NC(=O)CCN1C(=O)c2ccccc2S1(=O)=O	10.3
C=CCc1cc(C=O)cc(OC)c1OCc1ccc(C(=O)O)cc1	19.2
CCC(C)N(CC(=O)Nc1cccc(C)c1C)C(=O)CCl (stereo unspecified)	9.2
CS(=O)(=O)n1nc(-c2ccc(Cl)cc2)nc1N	18.6
C/C(=N\NC(=O)c1cccc(Cl)c1)C1C(=O)c2ccccc2C1=O	16.7
C/C(=N/NC(=O)c1ccccc1)C(=O)O	1.5
Cc1nn(-c2ccccc2)c(Cl)c1/C=C(\C#N)C(=O)NC(C)C	9.8
O=C(N/N=C/c1ccccc1OCc1ccccc1)c1cccnc1	7.0
CCOc1ccc2c(c1)C(N(CCN1CCOCC1)C(=O)Nc1ccccc1)CC(C)(C)O2 (stereo unspecified)	15.0
CN1C(=O)C(O)(CC(=O)/C=C/c2ccco2)c2ccccc21 (stereo unspecified)	-0.8
O=C(Nc1cccc(Cl)c1)C1C2CCC3C(CCC21)C3(Cl)Cl (stereo unspecified)	-6.0
Cc1ncn(C23CC4CC(CC(C4)C2)C3)n1	6.4
CCOc1ccc(CNC(=O)c2ccc(Sc3ccc(C)cc3)c(NC(C)=O)c2)cc1	4.3
O=C(O)c1cc2nccc(-c3ccco3)n2n1	32.9
CC1=[N+]([O-])C(C)(C)N(O)C1(C)C	14.0
CC(=O)c1cccc(NC(=O)NC2CCCc3ccccc32)c1 (stereo unspecified)	6.7
N#Cc1c(Nc2ccc(Cl)cc2)s[nH]c1=O	16.3
CCOn1c(=O)c(=O)n(O)c2ccccc21	11.0
CC(C)[C@@H]1NC(=O)c2cc([N+](=O)[O-])cc(I)c2NCC[C@@H](C(N)=O)NC(=O)[C@H](CO)NC1=O	14.4
O=C(O)CSc1nnc(CSc2nc3ccccc3s2)n1-c1ccccc1	17.1
Cc1cnc(NC(=O)CSc2nnc(N)s2)s1	28.3
Cc1ccc(-c2nn(-c3ccccc3)cc2CN(C)C(=O)CCC(=O)O)cc1C	11.3
Cc1cc(C)c(-c2cc(C)nc3ncnn23)c(C)c1	2.7
O=C1c2cccc3cccc(c23)C(=O)N1c1ccccn1	5.6
O=C(Nc1cc(Cl)ccc1N1CCOCC1)c1ccc2c(c1)OCCO2	15.4
Cc1ccc2c(c1)-c1ncc(C(=O)c3cc(Br)ccc3O)cc1CO2	8.3
O=C(COc1ccc(OCc2ccccc2)cc1)NN=C1CCCC1	9.2
CN(C)CCn1c(=N)n(CC(O)c2ccc(Cl)c(Cl)c2)c2ccccc21 (stereo unspecified)	19.2
C/C(=N/Nc1nc(-c2ccccc2)c(CC(=O)O)s1)c1ccccc1	11.9
NC(=O)C1=C[C@@H](c2csc3ccccc23)C[C@@H](OCCCCO)O1	6.9
N#CCSc1nc2ccccc2c(=O)n1C1CCCCC1	16.7
O=C(/C=C/c1ccco1)OCn1nnc2ccccc2c1=O	12.1
Cc1ccccc1C(=O)NC1CCN(Cc2nnnn2C(C)(C)C)CC1	12.5
Cc1ccc(Sc2ccc(CN3CCCC3)cc2[N+](=O)[O-])cc1	14.3
C#CCOCCOCCOCCNc1nc(N2CCN(C(=O)Cn3cc(CCCN=C(N)N)nn3)CC2)nc(N2CCN(C(=O)[C@H](C(C)C)n3cc(CCO)nn3)CC2)n1	11.0
C/C=C/C(=O)N1CC2(CC(c3cccc(NC(=O)/C(C)=C/C)c3)=NO2)C[C@H]1C(N)=O (stereo partly specified)	9.1
CC1(C)Cc2nc(-c3ccccc3)nc(SCC(O)CO)c2CO1 (stereo unspecified)	17.7
Cc1ccc(C)c(NC(=O)CN(C)C(=O)/C=C/c2ccco2)c1	10.3
O=c1c2ccccc2nnn1Cc1cccc2ccccc12	15.4
Cc1ccc(N/C=C(\[N+](=O)[O-])S(=O)(=O)c2ccccc2)cc1	19.7
Cc1ccc2cc3cc(C(=O)N4CC(C)CC(C)C4)oc3nc2c1 (stereo unspecified)	12.9
Cc1cc(=O)cc(C)n1-c1ccc(Cl)cc1	17.8
O=[N+]([O-])c1cccc(/C=N/Nc2nc(NCc3ccccc3)nc(N3CCOCC3)n2)c1O	5.3
Cn1c(N)c(C(=O)CSc2nc3ccccc3[nH]2)c(=O)n(C)c1=O	22.2
CC(=O)Nc1ccc(NC(=O)C(C)OC(=O)C2(c3ccc(Cl)cc3)CCCC2)cc1 (stereo unspecified)	16.0
CCc1ccc(CN(C)C(=O)CCc2nnc(COc3ccccc3)o2)cc1	17.3
Cc1ccc(NC(=O)c2ccc(Nc3ccccc3F)nc2)cc1	17.7
CCCN(CCC)CC(O)CN1C(=O)N(CN2C(=O)N(CC(O)CN(CCC)CCC)C(=O)C2(C)C)C(C)(C)C1=O (stereo unspecified)	16.6
